Assay outcomes deposited in PubChem by several laboratories.
UUG fidelity: yeast start codon fidelity modulation; S. cerevisiae UUG-firefly luciferase reporter, luminescence/redox ratio; 350,000 compounds, 0.13% hits; AID 602363; activity score, % at 18.7 µM;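 active means replicate mean at a twofold rise or more, about +100% in these data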;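 further: firefly luciferase made from a UUG start codon reports start codon fidelity; reporter light over untreated wells divided by growth signal over untreated wells; some hits fall short of that in this replicate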
Env fusion inh: HIV envelope-mediated fusion inhibition | inhibition, % at 12.3 µM | HeLa-JRFL Env/CEM21 cell fusion, luciferase | AID 651610 | 360,000 compounds, 1.1% hits;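 active means mean replicate inhibition score of at least 50 and every replicate individually at or above 50; inconclusive means only one of the two criteria met; inactive means mean below 50 and not all replicates reaching 50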;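 further: 0% = plate neutral controls and 100% = maraviroc near 300 nM; one replicate is shown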
CSC inhib: cancer stem cell inhibition. cancer stem cell-like cells viability, luminescence. inhibition, % at 7.5 µM. 300,000 compounds, 1.1% hits. AID 2717;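 active means mean at 75% or more and at least half the replicates too; inconclusive means mean and replicates disagree; tested in HMLE shEcad cells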;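 further: 0% = median of negative and 100% = median of positive control wells; the first replicate is given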
PABP polyA inh: PABP-poly(A) binding inhibition; inhibition, % at 35 µM; 290,000 compounds, 1% hits; P11940; PABP-poly(A) RNA binding, fluorescence polarization;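 active means 50% or more with normal probe brightness, or confirmed in later tests; inconclusive means above 50% with abnormal brightness, or retests that disagree; inactive means below 50% or failed in later tests; about a fifth of its hits are not listed in these tables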;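 further: calls also rest on retests at 20 µM and on dose response follow-up; controls were probe without protein and protein plus probe with vehicle; some compounds called inactive have numbers as strong as hits; many hits fall short of the cut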
eIF4H FP inh: inhibitors of RNA binding by human eIF4H. Q15056. eIF4H fluorescence polarization binding assay. inhibition, % at 35 µM. 290,000 compounds, 0.94% hits;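 active means 50% or more with normal probe brightness, or confirmed in later tests; inconclusive means above 50% with abnormal brightness, or retests that disagree; inactive means below 50% or failed in later tests; about a fifth of its hits are not listed in these tables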;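 further: calls also rest on retests at 20 µM and on dose response follow-up; 0% = protein and probe with vehicle and 100% = probe without protein; strong numbers were not always called active; many hits fall short of the cut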
Rce1 inhib: yeast Ras-converting enzyme inhibition; yeast membranes, quenched prenylated peptide cleavage fluorescence; calls only; 290,000 compounds, 0.27% hits;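 active means fall in fluorescence gain of 50% or more versus controls, with final raw signal at or below 3038400; inconclusive means same 50% fall but final raw signal above 3038400; inactive means fall in fluorescence gain under 50%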;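 further: plate controls were neutral control wells for no effect and wells lacking membranes for full effect; tested at 10 µM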
Target sequence (Q03530 whole entry, looked up): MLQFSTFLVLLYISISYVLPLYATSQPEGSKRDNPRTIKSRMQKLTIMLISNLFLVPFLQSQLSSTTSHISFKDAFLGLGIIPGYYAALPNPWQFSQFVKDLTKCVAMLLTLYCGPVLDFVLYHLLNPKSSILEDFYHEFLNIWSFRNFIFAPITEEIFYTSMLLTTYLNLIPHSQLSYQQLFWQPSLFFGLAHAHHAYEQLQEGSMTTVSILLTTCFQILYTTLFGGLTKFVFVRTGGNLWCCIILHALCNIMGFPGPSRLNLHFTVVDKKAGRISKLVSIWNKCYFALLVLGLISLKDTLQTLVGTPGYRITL
MT1-MMP act inh: MT1-MMP (human) activation inhibition | P50281 | HT1080 RFP-PRO-GFP cells, GFP/RFP ratio fluorescence, overnight; percent of plate control window, DMSO zero | GFP/RFP ratio change, % at 20 µM | 360,000 compounds, 0.061% hits;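 active means GFP/RFP ratio change of at least 30% with cell ATP level not reduced by more than half and red fluorescence within 50% of control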; further: strong numbers were not always called active
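Test system: HT1080 cells expressing an RFP-PRO-GFP fluorescent reporter construct / Compound dosing: single-point 20 µM compound, 1% DMSO / Schedule: cells overnight before dosing, compound overnight, 37 °C, 5% CO2 / Evaluation: GFP/RFP fluorescence ratio / Control set: DMSO and RFP-L50D-GFP cell wells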
MT1-MMP act inh RFP: further read-out of MT1-MMP act inh, marked with its call; RFP signal change, %; measured here: RFP expression control read;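 0 = vehicle wells; hits needed this value within 50% of zero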
* marks the source's active call; other numbers are inactive results; i = inactive; ? = inconclusive; nt = not tested or not shown; & = joins results of further samples. An excerpt (hit frequency here may not be typical).

smiles	UUG fidelity	Env fusion inh	CSC inhib	PABP polyA inh	eIF4H FP inh	Rce1 inhib	MT1-MMP act inh	MT1-MMP act inh RFP
COc1ccccc1N1CCN(C(=O)C2CCN(C(=O)c3ccccc3C)CC2)CC1	17	-5	-9	7	3	i	6	-5
Cc1ccc(C)n1NC(=O)c1ccccc1O	-10	nt	14	-13	-9	i	-29	-4
COc1ccc(CN2CCN(C(=O)c3ccco3)CC2)cc1OC	nt	3	32	17	-1	i	7	0
Cc1ccc(-n2c(-c3ccncc3)nnc2-c2cccs2)cc1	-15	2	-9	nt	nt	i	1	-1
C=C(C)CSc1nc(C)c(Cc2ccccc2)c(=O)[nH]1	-10	-21	0	11	3	i	-5	-4
O=C(NCCCSc1ccccc1)c1cc(Cl)ccc1O	-14	7	nt	2	-5	i	2	-10
Cc1cc(NS(=O)(=O)c2ccc(NC(=O)CSc3nnc(-c4ccco4)n3Cc3ccco3)cc2)nc(C)n1	nt	7	-3	-11	30	i	-1	3
O=[N+]([O-])c1cccc(S(=O)(=O)c2cccc([N+](=O)[O-])c2)c1	nt	-3	4	5	-2	i	3	0
O=C(CSc1ccc(Cl)cc1)NNC(=O)c1ccncc1	-16	-3	nt	nt	nt	nt	0	5
CC(=O)Nc1ccccc1OC(C)C(=O)NC(C)c1ccc(F)cc1 (centres undefined)	nt	nt	7	13	-5	i	-5	1
CNc1nc(-c2ccc3c(c2)CCN3C(=O)c2ccc(F)cc2)cs1	0	-32	nt	5	-9	nt	2	-9
O=C(CC1C(=O)NCCN1C1CCCC1)NCc1cccc(OC(F)(F)F)c1 (centres undefined)	-6	8	-14	0	-9	i	3	1
CCOC(=O)Cc1nnc(NC(=O)CSc2nncn2C)s1	nt	nt	-1	-3	-2	i	2	3
COCCN(CCOC)C(=O)CN1C(=O)NC(Cc2c[nH]c3ccccc23)C1=O (centres undefined)	2	1	-5	4	2	i	0	5
Cc1ccc(S(=O)(=O)Nn2c(O)c(C=C3N=c4ccccc4=N3)sc2=S)cc1	nt	0	21	19	5	i	8	3
Cc1cc(C)c(S(=O)(=O)N2CCCC(C(=O)NCCC3=CCCCC3)C2)c(C)c1 (centres undefined)	-22	nt	24	-10	0	i	-44	-35
CCS(=O)(=O)NCCCc1ccccc1	-18	-38	-1	-2	0	i	0	3
CN1C(=O)N(CC(=O)N2CCN(S(=O)(=O)/C=C/c3ccccc3)CC2)C(=O)C12CCCCC2	10	10	-18	nt	nt	nt	1	0
Cc1cc(/C=C2/C(=O)N(C)C(=S)N2C)ccc1N1CCCC1	nt	-49	3	10	?	i	-73	18
COc1ccccc1C1CC(c2cccc(NS(C)(=O)=O)c2)=NN1S(=O)(=O)c1ccccc1 (centres undefined)	5	0	13	-2	-7	i	-11	4
Nc1nc(NCc2ccc(Cl)cc2)nc(NCCO)c1[N+](=O)[O-]	-13	39	-1	1	5	nt	-3	-5
COC(=O)c1ccc(CSc2nc(N)cc(N)n2)cc1	-13	-38	-12	2	-2	i	4	3
CCn1c(N)c(Br)c(=O)[nH]c1=O	nt	3	-7	?	-1	i	3	2
O=C(C1CC1)N1N=C(c2ccccc2)CC1(O)C(F)(F)F (centres undefined)	2	-8	-14	-10	-11	i	-3	-1
O=c1oc2ccccc2c2[nH]ccc12	-12	11	-8	-2	2	i	-2	-1
Cc1cccc(-n2nc3c(c2NC(=O)C2CC2)CS(=O)(=O)C3)c1C	-2	0	-3	-8	-20	i	0	0
O=C(/C=C/c1ccc(O)c(O)c1)OC1C(O)CC(OC(=O)/C=C/c2ccc(O)c(O)c2)(C(=O)O)CC1O (centres undefined)	0	-1	21	-1	7	i	0	-2
CCCC(=O)Nc1cc(C)cn(Cc2c(F)cccc2Cl)c1=O	-8	7	9	14	-5	i	-3	-3
C=CCSc1n[nH]c(=O)n1-c1cccc(C(F)(F)F)c1	4	-8	1	-11	-13	i	4	2
CCOc1ccc(NS(=O)(=O)c2ccc(C(=O)NCC3CCCO3)cc2)cc1 (centres undefined)	-5	-31	nt	nt	nt	nt	4	-5
COc1cc(F)c(C2=CC(=O)C[C@H](c3ccc4c(c3)OCO4)C2)cc1F	-1	-27	17	nt	nt	nt	6	1
COc1ccc(C(=O)NC2CCCc3c2cnn3-c2ccccc2F)o1 (centres undefined)	-8	-13	-4	4	-5	i	-17	-9
Cc1ccnc(NC(=O)Cc2ccc([N+](=O)[O-])cc2)c1	nt	5	nt	3	-4	i	-4	0
CC(=O)Oc1cccc(N2C(=O)C3C4C=CC(CC4)C3C2=O)c1 (centres undefined)	-7	0	-8	7	6	i	1	4
CN1CCc2c(c3ccccc3n2Cc2ccccc2)C1	-3&-23	-32&-4	-6	-1	8	i	-5&-11	-3&-4
CC(=O)c1c(Cl)nc2cccc3c2c1-c1ccccc1C3=O	-25	-201	-6	6	-2	i	-23	-5
COc1ccc(CN2CCN(Cc3c[nH]c4ccccc34)CC2)c(OC)c1	-32	-3	nt	nt	nt	nt	4	7
Cc1cc(C)c(S(=O)(=O)c2cccc(Cl)c2)c(=O)[nH]1	0	2	-1	5	-2	i	0	1
CCC1(CC)NC(=O)N(CC(=O)NCc2ccc3c(c2)OCO3)C1=O	-24	14	-8	5	-6	i	-6	0
CCN(CC(=O)Nc1c(F)cccc1F)C(=O)CCNS(=O)(=O)c1ccccc1C(F)(F)F	nt	-8	-11	nt	nt	i	1	-5

Pulled by compound from the entries so far (4):
smiles	UUG fidelity	Env fusion inh	CSC inhib	PABP polyA inh	eIF4H FP inh	Rce1 inhib	MT1-MMP act inh	MT1-MMP act inh RFP
CCN(CC(=O)Nc1c(F)cccc1F)C(=O)CCNS(=O)(=O)c1ccccc1C(F)(F)F	nt	-8	-11	nt	nt	i	1	-5
CN1CCc2c(c3ccccc3n2Cc2ccccc2)C1	-3&-23	-32&-4	-6	-1	8	i	-5&-11	-3&-4
COc1ccc(CN2CCN(Cc3c[nH]c4ccccc34)CC2)c(OC)c1	-32	-3	nt	nt	nt	nt	4	7
Cc1ccnc(NC(=O)Cc2ccc([N+](=O)[O-])cc2)c1	nt	5	nt	3	-4	i	-4	0

Remaining list, next part
smiles	UUG fidelity	Env fusion inh	CSC inhib	PABP polyA inh	eIF4H FP inh	Rce1 inhib	MT1-MMP act inh	MT1-MMP act inh RFP
CCOC(=O)c1c(C)[nH]c(C)c1C(=O)COC(=O)[C@@H]1CCCN1S(=O)(=O)c1ccc(Cl)cc1	2	nt	6	-10	-1	i	6	4
COCCNc1oc(COc2cccc(C)c2)nc1C#N	4	nt	3	-10	-12	nt	3	0
Cc1cc(Cl)ccc1NC(=S)N(CCCN1CCOCC1)Cc1cccs1	-30	-55	-7	15	12	i	-4	-3
COC(=O)c1c(S(C)(=O)=O)nc(-c2ccccc2)[nH]c1=O	nt	6	-16	-13	-10	i	3	-2
CSc1ncccc1C(=O)OCC(=O)c1cccs1	-24	5	-1	-1	-3	i	2	4
CCn1cnc2c1c(=O)n(Cc1cccc(Br)c1)c(=O)n2Cc1ccccc1	-10	38	-1	-6	0	i	0	-2
O=[N+]([O-])c1c(Nc2ccccc2O)cc(Cl)c2nonc12	-14	-232	-8	6	1	i	14	3
CCCCCC[C@@H]([C@@H](C)O)n1cnc2c(N)ncnc21	0	5	-9	nt	nt	i	2	-9
O=C(COC(=O)Cc1ccc2c(c1)OCCO2)Nc1ccc(S(=O)(=O)N2CCCC2)cc1	-5	nt	-5	15	2	i	-5	-3
COc1ccc(C)cc1NC(=O)c1cc2c(s1)CCC2	-4	-6	4	2	1	i	0	3
OC(CNC1CCCC1)COc1ccc(-c2ccccc2)cc1 (centres undefined)	nt	8	nt	-30	-3	i	-3	-3
CC(=O)c1ccc(NC(=O)CSc2nnc(Cn3cnc4ccccc43)o2)cc1	-24	1	1	-3	-4	i	4	1
COc1ccc(S(=O)(=O)CCC(=O)Nc2ccc(OC)cc2OC)cc1	-13	-14	-8	-2	8	i	1	0
O[C@H]1CN(CC2CCCCC2)[C@@H](c2ccc(Cl)cc2)C[C@@H]1n1cc(-c2ccc(F)cc2)nn1	-11	?	nt	nt	nt	nt	-9	-15
CCOc1ccc(C(=O)N(CC)CC(=O)Nc2ccc3c(c2)OCCO3)cc1	-6	-25	-16	nt	nt	nt	1	1
COCC(=O)Nc1ccc(OC)c(Cl)c1	-14	-5	-4	-1	14	i	4	3
Fc1cccc(NCc2ccoc2)c1	-5	6	-6	7	8	i	1	4
CCOC(=O)c1c(C)c(-c2ccccc2)n(CC(=O)NCCC(C)C)c1C	-17	-1	5	-14	-1	i	1	-1
CCCC(=O)Nc1ccc(NC(=O)Cc2ccccc2)cn1	0	nt	-10	0	4	i	-12	-2
CCOc1cc2c(c3c1C(c1ccccc1)N(S(=O)(=O)c1ccc(C)cc1)C3)C(=O)C=CC2=O (centres undefined)	-15	-86	nt	nt	nt	nt	5	3
Cc1ccc(C(=O)N/C(=C\c2ccco2)C(=O)NCCN2CCOCC2)cc1C	-4	7	-1	-2	6	nt	-4	3
CN(NC1OC(=O)c2ccccc21)c1ccc(Cl)cc1[N+](=O)[O-] (centres undefined)	12	-7	3	14	10	i	7	7
CC(C)Cn1c(N)c(C(=O)COC(=O)c2ccc(Cl)cc2)c(=O)n(C)c1=O	nt	0	-1	2	-6	i	4	-10
COC(CNC(=O)c1c[nH]c2ccc(S(=O)(=O)N3CCOCC3)cc2c1=O)OC	0	16	-8	5	-8	i	1	4

Single values from above.
MT1-MMP act inh result of COC(CNC(=O)c1c[nH]c2ccc(S(=O)(=O)N3CCOCC3)cc2c1=O)OC = 1
CSC inhib result of Cc1ccc(C(=O)N/C(=C\c2ccco2)C(=O)NCCN2CCOCC2)cc1C = -1
Env fusion inh result of CC(C)Cn1c(N)c(C(=O)COC(=O)c2ccc(Cl)cc2)c(=O)n(C)c1=O = 0
UUG fidelity result of CN(NC1OC(=O)c2ccccc21)c1ccc(Cl)cc1[N+](=O)[O-] (centres undefined) = 12
MT1-MMP act inh RFP result of CCOC(=O)c1c(C)c(-c2ccccc2)n(CC(=O)NCCC(C)C)c1C = -1

Single records, from the list above. Screens in order: UUG fidelity, Env fusion inh, CSC inhib, PABP polyA inh, eIF4H FP inh, Rce1 inhib, MT1-MMP act inh, MT1-MMP act inh RFP
CCOc1cc2c(c3c1C(c1ccccc1)N(S(=O)(=O)c1ccc(C)cc1)C3)C(=O)C=CC2=O (centres undefined) is entered as -15, -86, nt, nt, nt, nt, 5, 3
COC(CNC(=O)c1c[nH]c2ccc(S(=O)(=O)N3CCOCC3)cc2c1=O)OC is entered as 0, 16, -8, 5, -8, i, 1, 4

Next results
smiles	UUG fidelity	Env fusion inh	CSC inhib	PABP polyA inh	eIF4H FP inh	Rce1 inhib	MT1-MMP act inh	MT1-MMP act inh RFP
O=C(c1ccc(Cn2cc(Cl)cn2)cc1)N1CCN(c2ccccc2)CC1	33	-84	9	2	1	i	1	-3
O=C(NCc1ccco1)Nc1ccc2nsnc2c1	-3	nt	8	6	-5	i	0	1
CC(C)NC(=O)c1ccccc1NC(=O)C1COc2ccccc2O1 (centres undefined)	-16	15	7	5	-2	nt	-9	-5
CC(=O)Nc1ccc(C(C#N)c2ccccc2)cc1 (centres undefined)	-6	10	-10	2	4	nt	1	0
Cn1c(CN2CCCCC2)nc2cc(NC(=O)c3ccccc3)ccc21	-27	-3	-20	-4	-3	i	7	-1
CN(C1=NC(=O)C(CC(=O)O)S1)c1ccc(O)cc1 (centres undefined)	nt	-12	-7	0	2	i	-2	1
CCOc1ccc(NC(=O)CCCOc2cc(=O)n(C)c3ccccc23)cc1	16	-9	-9	1	-2	i	16	9
